Screening results from PubChem BioAssay.
Sa growth 42C = S. aureus growth inhibition at 42 and 30 °C, primary screen, LtaS inhibitor project, RN4220, two temperatures. AID 720641, 2013. actives 0.53% (n = 170,000). relative growth, % (no concentration beside the values). OD600, 20 h, 42 °C; stronger effect = lower value;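 active means growth at 42 °C up to 50% and 20 or more points under that at 30 °C, or under 10% at both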;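 further: 300 nL library stock went into each well; scaled to the means of positive and negative controls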
HCMV NEC inh = inhibitors of HCMV UL50-UL53 interaction, biochemical, HTRF; HCMV UL50-UL53 nuclear egress complex (human cytomegalovirus); normalized percent inhibition; inhibition, % (concentration not given with the values); actives 0.15% (n = 190,000); AID 1918969, 2023;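 active means both replicates at 50% or more, plus weaker picks with an unusually low signal ratio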;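 further: stock transfer was 100 nL into about 20 µL; 0% = negative control wells and 100% = wells with untagged competitor protein; inactives centre near -12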
GIV-Gai inh = inhibitors of GIV peptide binding to Galpha-i3, primary screen, biochemical, fluorescence polarization, FITC-GIV GBA peptide, rat Galphai3. 90 min; stronger effect = lower value; scaled: aluminum fluoride 0%, vehicle 100%. Guanine nucleotide-binding protein G(i) subunit alpha-3 (Rattus norvegicus), P08753. AID 1224905, 2016. actives 0.42% (n = 210,000). percent of control (FP), % (no concentration beside the values);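 active means replicate mean at 85% of control or lower, very high polarization wells dropped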;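 further: wells of about 15 µL received 100 nL stock; the first replicate is given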
Target sequence (P08753 whole entry, looked up): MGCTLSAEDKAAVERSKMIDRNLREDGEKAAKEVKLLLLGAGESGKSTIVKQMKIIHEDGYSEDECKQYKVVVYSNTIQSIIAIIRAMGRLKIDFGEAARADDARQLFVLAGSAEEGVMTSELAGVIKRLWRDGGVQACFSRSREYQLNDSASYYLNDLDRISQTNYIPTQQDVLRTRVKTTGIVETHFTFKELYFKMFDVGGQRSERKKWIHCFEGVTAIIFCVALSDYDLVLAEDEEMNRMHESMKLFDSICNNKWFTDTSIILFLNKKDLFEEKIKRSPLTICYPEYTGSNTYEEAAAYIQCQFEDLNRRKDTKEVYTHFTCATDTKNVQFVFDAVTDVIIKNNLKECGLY
Sa growth 42C second temp = recorded beside Sa growth 42C, whose call it bears; relative growth, %; measured here: growth at 30 °C;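 optical density after 20 h as mean of two plates; 100% = untreated growth and lower means inhibition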
Numbers without * were called inactive; . = not tested or not shown; & = joins results of further samples.

item	canonical_smiles	Sa growth 42C	Sa growth 42C second temp	HCMV NEC inh	GIV-Gai inh
1	COc1cc(OC)c(NC(=O)c2sc3ncnc(N4CCCCC4C)c3c2C)cc1Cl (stereo unspecified)	76.8	89.5	.	102.8
2	Cc1cccc(-n2c3c(cc(-c4nc(-c5ccc(Cl)cc5)cs4)c2=O)C(=O)CC(C)(C)C3)c1	97.7	88.6	0.7	100.9
3	CSc1nc2ccc(I)cc2c(=O)n1C	99.6	102.5	-3.9	103.9
4	CC(=O)c1ccc(S(=O)(=O)Nc2cccc(-c3ccc(N4CCCC4)nn3)c2)cc1	95.3	79.7	.	105.5
5	O=C(CC1Nc2ccccc2NC1=O)Nc1ccccc1C(F)(F)F (stereo unspecified)	103.1	74.0	-34.5	102.8
6	CCC(O)(CCN1CCCCC1)c1ccccc1 (stereo unspecified)	96.7	99.6	-24.8	104.9
7	CC(C)C(=O)NCCc1nc(-c2ccc(F)cc2)n[nH]1	.	.	-8.5	99.8
8	O=C(O)c1ccccc1C(=O)Nc1cccnc1	96.1	75.6	-10.2	96.2
9	CC(=O)NCC(=O)OCc1ccc(COC(=O)CNC(C)=O)cc1	110.5	104.4	-3.3	.
10	c1ccc(C2CN(Cc3ccco3)C(c3ccccc3)O2)cc1 (stereo unspecified)	120.7	79.4	-25.9	.
11	Cc1oncc1C(=O)NC1CCCCC1	.	.	-9.8	98.7
12	CCCOC(=O)c1ccc(NC(=O)CO/N=C/c2nc3cc(Cl)ccc3o2)cc1	92.0	92.6	2.9	.
13	CCC1Cn2c(C(=O)NCCN3CCOCC3)cc3c(Cl)ccc(c32)O1 (stereo unspecified)	.	.	4.1	100.8
14	CCN1CCN(C(c2cccs2)C(C)NS(=O)(=O)c2ccc(C)cc2)CC1 (stereo unspecified)	81.0	81.2	.	101.7
15	CC(/C=C/c1ccc(Cl)cc1)=N\O	88.0	87.0	-71.4	.
16	COC(=O)c1ccccc1NC(=O)c1cc2cccnc2n(C)c1=O	96.5	88.2	-33.7	98.0
17	CCn1c(=O)c2sccc2n2c(CCCC(=O)N3CCN(c4ccc(F)cc4)CC3)nnc12	105.1	85.5	.	103.7
18	CCOC(=O)c1ccc(NC(=O)C2CC(=O)N(C)C(=Nc3cccc(C(F)(F)F)c3)S2)cc1 (stereo unspecified)	.	.	-29.0	102.0
19	Cc1ccc(S(=O)(=O)Nc2ccc(Br)cc2C(NCC(=O)O)c2ccccc2)cc1 (stereo unspecified)	43.2	57.5	.	105.8
20	NC(N)=Nc1nc(-c2ccc(-c3ccccc3)cc2)cs1	100.7	77.6	-27.6	103.1
21	Cc1c2c(c(C#N)c3nc4ccccc4n13)CCCC2	92.1	91.8	-47.0	.
22	CCOc1ccc(Oc2cc3c(cc2NC(=O)C2CC2)n(C)c(=O)c(=O)n3C)cc1	.	.	-19.8	101.0
23	COc1ccc(N2CCN(C(=O)CNS(=O)(=O)c3ccc(Br)s3)CC2)cc1	93.3	82.1	-16.7	103.1
24	CC(C)(C)C1CCc2c(sc3nc(CCC(=O)N4CCOCC4)[nH]c(=O)c23)C1 (stereo unspecified)	.	.	1.2	94.8
25	Cc1cc(=O)oc2cc(OCc3nnc(-c4ccccc4)o3)ccc12	110.9	100.4	-24.0	101.5
26	CCCS(=O)(=O)c1ncc(Cl)c(C(=O)Nc2sc3c(c2C(=O)OC)CCC3)n1	.	.	-18.1	105.7
27	O=C(Nc1ccc(Cl)cc1)OCCS(=O)(=O)c1ccc(C(F)(F)F)cn1	80.5	75.5	-1.5	103.2
28	COC(=O)c1ccc(COC(=O)c2n[nH]c3ccccc23)o1	112.4	98.3	-11.5	.
29	CCC(=O)NCCc1cc2c(OC)ccc(OC)c2[nH]c1=O	89.5	81.9	.	102.0
30	Cc1cc(C)nc(-n2nc(C)cc2NC(=O)CNC(C)c2ccccc2)n1 (stereo unspecified)	91.3	96.8	2.8	.

Ordered by count of non-hydrogen atoms (highest first): six of the compounds above.
item	canonical_smiles	Sa growth 42C	Sa growth 42C second temp	HCMV NEC inh	GIV-Gai inh
12	CCCOC(=O)c1ccc(NC(=O)CO/N=C/c2nc3cc(Cl)ccc3o2)cc1	92.0	92.6	2.9	.
27	O=C(Nc1ccc(Cl)cc1)OCCS(=O)(=O)c1ccc(C(F)(F)F)cn1	80.5	75.5	-1.5	103.2
16	COC(=O)c1ccccc1NC(=O)c1cc2cccnc2n(C)c1=O	96.5	88.2	-33.7	98.0
28	COC(=O)c1ccc(COC(=O)c2n[nH]c3ccccc23)o1	112.4	98.3	-11.5	.
6	CCC(O)(CCN1CCCCC1)c1ccccc1 (stereo unspecified)	96.7	99.6	-24.8	104.9
15	CC(/C=C/c1ccc(Cl)cc1)=N\O	88.0	87.0	-71.4	.

Additional records
item	canonical_smiles	Sa growth 42C	Sa growth 42C second temp	HCMV NEC inh	GIV-Gai inh
31	O=C(CSCc1cc(=O)n2[nH]cnc2n1)Nc1ccccc1Cl	.	.	7.7	104.6
32	Cn1nc(C(=O)NCC2CCCO2)c2c1-c1cc(Cl)ccc1SC2 (stereo unspecified)	.	.	-28.0	101.6
33	COc1ccc(NC(=O)c2cc(S(=O)(=O)N3CCCCC3)c[nH]2)cc1Cl	103.9	85.1	.	103.5
34	CCC(=O)N1CCc2cc(Br)cc(S(=O)(=O)N3CCCC(C(=O)Nc4ccc(OC)c(Cl)c4)C3)c21 (stereo unspecified)	95.5	94.2	3.0	107.7
35	COC(=O)C1=C(C)NC2=C(C(=O)CC(c3ccco3)C2)C1c1ccco1 (stereo unspecified)	90.1	85.3	-2.4	101.6
36	COc1ccc(C(CNC(=O)c2ccccc2)N(C)C)cc1 (stereo unspecified)	94.3	88.8	-16.8	.
37	O=C(CCCN1C(=O)/C(=C\c2ccco2)SC1=S)NC1CCCCC1	74.7	82.6	-33.1	104.2
38	COc1ccc(-n2c(C)cc(CNC(=O)NCC3CCCO3)c2C)cc1 (stereo unspecified)	.	.	5.6	113.9
39	CCc1c(C#N)c(N)nc2sc(C(=O)Nc3ccc(Br)cc3)c(N)c12	95.5	90.0	-18.9	.
40	CCOC(=O)c1c(S(=O)(=O)N2CCCC(C(=O)Nc3cc(C)ccn3)C2)c(C)n(C)c1C (stereo unspecified)	130.7	91.5	.	107.4
41	Cc1ccc(-c2nc3c(c(SCC(=O)Nc4ccccc4Cl)n2)Cc2c(CO)cnc(C)c2O3)cc1	99.1	102.8	.	105.0
42	NNC(=O)/C(=C\c1ccccc1)CCO	106.4	91.2	-13.6	97.7
43	COc1ccc(C(=O)CC(=O)Nc2ccccc2)cc1OC	61.8	76.4	28.4	99.7
44	COc1ccc(C=Nc2ccc(C)cc2C)cc1	114.0	84.9	-19.1	.
45	O=S(=O)(NCC12CC3CC(CC(C3)C1)C2)c1cccc2nsnc12	98.5	87.3	0.7	.
46	O=C(O)CNc1nc(-c2ccccc2)c2cc(Br)ccc2n1	87.8	86.0	-27.6	99.6
47	Cc1[nH]c(=O)[nH]c(=O)c1S(=O)(=O)NC1CC2CCC1C2 (stereo unspecified)	.	.	-10.4	101.1
48	COc1cc(C(=O)OCCCCN2C(=O)c3ccccc3C2=O)cc(OC)c1OC	96.6	93.7	-17.8	.
49	CCc1ccc(NC(=O)CSc2ncnc3c2sc2ccccc23)cc1	122.6	90.8	.	100.7
50	CCC(Oc1ccc(Br)cc1)C(=O)Nc1nccc(C)n1 (stereo unspecified)	103.7	88.3	-17.5	105.9
51	CCOC(=O)N1CCN(C(=O)COc2ccccc2)CC1	93.0	101.9	8.3	.
52	Cc1ccc(C(=O)CSc2ncc3c(n2)-c2ccccc2N(Cc2ccc(Cl)cc2)S3(=O)=O)cc1	93.8	92.0	.	102.4
53	Cc1ccc(N=c2scc(-c3cccs3)n2CCCN2CCOCC2)cc1	81.9	55.0	-16.9	110.9
54	O=C(CN1CCN(C2CCCCC2)C(=O)C1=O)Nc1ccc(Cl)cc1	108.0	93.3	.	105.0
55	O=C(Cn1cnc2onc(-c3ccc(F)cc3)c2c1=O)Nc1cccc(C(F)(F)F)c1	121.5	98.6	.	108.2
56	CC(C)(C)c1cc(NC(=O)COc2ccc(Cl)cc2Cl)on1	81.8	81.2	-26.4	.
57	Cc1nc(C(=O)Nc2ccc3nsnc3c2)cc2c1[nH]c1ccccc12	95.1	79.6	1.9	106.0
58	O=C(Cn1cnc2nc(N3CCCCC3)sc2c1=O)NC1CCCC1	.	.	-29.9	104.5
59	COc1ccc(CCc2nn3c(-c4ccncc4)nnc3s2)cc1OC	.	.	-4.1	99.8
60	Cc1cccc(NC(=O)CN2C(=O)COc3ccc(S(=O)(=O)Nc4ccccc4)cc32)c1C	79.5	86.7	.	113.7

Entries of single compounds from above.
Results for `Cc1ccc(S(=O)(=O)Nc2ccc(Br)cc2C(NCC(=O)O)c2ccccc2)cc1` (stereo unspecified) : Sa growth 42C: 43.2; Sa growth 42C second temp: 57.5; HCMV NEC inh: .; GIV-Gai inh: 105.8
Results for `CCC(=O)NCCc1cc2c(OC)ccc(OC)c2[nH]c1=O` : Sa growth 42C: 89.5; Sa growth 42C second temp: 81.9; HCMV NEC inh: .; GIV-Gai inh: 102.0

(next part)
item	canonical_smiles	Sa growth 42C	Sa growth 42C second temp	HCMV NEC inh	GIV-Gai inh
61	CC1=C(C(=O)Nc2ccc(C)c(Cl)c2)C2(CCN(Cc3ccccc3)CC2)OC1=O	.	.	5.6	107.4
62	Nc1ncnc2c1ncn2CCc1ccccc1	86.5	79.9	26.0	92.7
63	Cc1ccc(Oc2c(C(F)(F)F)oc3c(CN4CCC(C)CC4)c(O)ccc3c2=O)cc1	86.9	86.1	-42.6	100.1
64	CCOC(=O)c1cc2occc2n1CC(=O)N(C(C)C)C(C)C	92.9	90.5	-22.8	103.5
65	Cc1ccc(C)c(N2C(=O)N(Cc3ccccc3Cl)C3CS(=O)(=O)CC32)c1 (stereo unspecified)	89.7	87.2	-16.1	99.5
66	Cc1cccc(NC(=O)C2CCN(S(=O)(=O)c3ccc4c(c3)CCCC(=O)N4)CC2)c1	99.4	89.9	.	108.2
67	Cc1ccc(C2=NN(C(=O)CSc3ccc4c(c3)OCCO4)C(c3ccco3)C2)cc1 (stereo unspecified)	100.5	92.6	-20.6	.
68	Cn1cnc(S(=O)(=O)Nc2ccccc2N2CCOCC2)c1	92.3	87.5	-32.6	105.0
69	Cc1ccc(CSc2oc(-c3cccs3)nc2S(=O)(=O)c2ccc(C)cc2)cc1	102.0	102.1	3.4	106.3
70	Cc1cc2oc(C(=O)Nc3nnc(C(C)C)s3)cc(=O)c2cc1C	.	.	-26.3	96.9
71	CCOC(=O)c1cc2c(nc1N)CC(C)(C)OC2	110.2	87.7	-0.7	98.6
72	C=CCc1cccc(Cl)c1OCCSc1ncccn1	94.2	98.3	-8.4	99.8
73	O=C(/C=C/c1ccccc1)NC1CC1	96.9	83.8	-31.1	.
74	C=CCN1C(=O)/C(=c2\sc3n(c2=O)C(c2ccc(OC)cc2)C(C(=O)OC)=C(C)N=3)c2ccccc21 (stereo unspecified)	.	.	-17.6	109.9
75	Cc1nc(C)c2c(=O)cc(-c3ccccc3)[nH]c2n1	89.5	85.7	.	108.3
76	O=C(NC(c1cccs1)c1ccc2cccnc2c1O)C1CCCCC1 (stereo unspecified)	105.0	92.4	1.9	106.9
77	CCn1c(=N)n(CCOc2ccc(Br)cc2)c2ccccc21	57.5	47.6	.	100.9
78	CC(=N/O)/C(=N\O)c1ccc(C)o1	118.5	104.4	-22.2	101.7
79	O=c1[nH]c2ccc(NCc3ccc(F)cc3)cc2[nH]1	108.1	83.3	3.5&-6.2	101.2&102.0
80	CC1=CCC2CC1C(c1ccccc1)OC2(C)C (stereo unspecified)	82.4	87.2	.	102.4
81	COc1ccc(N=C2SC(C(=O)Nc3ccc(OC)cc3)CC(=O)N2CCc2ccc(OC)c(OC)c2)cc1 (stereo unspecified)	.	.	2.2	102.8
82	COc1ccccc1CNC(=O)c1cnc2sc(N3CCCCC3)nn2c1=O	78.5	85.4	.	96.5
83	O=S(=O)(NC1CC1)c1ccc(S(=O)(=O)N2CCCc3ccccc32)cc1	153.4	102.0	-8.6	101.5
84	CCCCN(Cc1ccccc1)S(=O)(=O)c1ccc2c(c1)CCN2C(=O)C1CCC1	100.9	90.0	-23.9	105.4
85	COc1cc2c(cc1OC)CN(S(=O)(=O)c1c(C)nn(C)c1C)CC2	91.4	92.1	.	103.4
86	CC(C)N(CC(N)=O)C(=O)/C=C/c1ccc(Cl)c(Cl)c1	107.4	95.2	-3.5	.
